Sfp PPTase inh: Sfp phosphopantetheinyl transferase inhibition; 310,000 tested, 3.5% active; AID 1490; Potency, µM, for the others: max response, negative = inhibition, hits mostly inhibitors; Biochemical Sfp PPTase activity, qHTS; active = well fitted inhibition curve with a large enough effect; inconclusive = small, poorly fitted or top-dose-only effect, or another doubt; inactive = no such curve, though single readings can be large or run the other way;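 note: the enzyme is Sfp with the accession as filed and its product quenches rhodamine fluorescence; 0% = enzyme reaction without inhibitor and -100% = no enzyme wells; top concentration of the series not given in the record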
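After 15 min at room temperature with compound, 15 nM Sfp received 5 uM rhodamine-CoA plus 12.5 uM BHQ-2-ybbR (50 mM Hepes pH 7.6, 10 mM MgCl2). Rate came from the fluorescence difference over 30 min, ex 525/em 598 nm.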
Numbers without * were called inactive; ? = inconclusive; & = joins results of further samples. Potency is the fitted concentration of half-maximal effect. These rows are one share of the data; the hit share may differ from the screen's.

Sfp PPTase inh	SMILES
12%	C#C[C@]1(O)CC[C@@H]2[C@H]3CCc4cc(OC)ccc4[C@@H]3CC[C@@]21C
-13%	c1ccc(CNc2oc(-c3ccccc3)nc2-c2cccc3ccccc23)cc1
8%	O=C(NCCc1c[nH]c2ccccc12)c1ccccc1O
-1%	CCOC(=O)OCC1OC(C#Cc2ccc(Br)cc2)C=CC1OC(=O)OCC (stereo unspecified)
31%	CCCC[C@@H]1C[C@H]1C(NC(=O)c1cccs1)c1ccc(Cl)cc1 (stereo partly specified)
-9%	O=C1/C(=C/c2ccccc2)Oc2ccccc21
-11%	COc1ccc(-c2nnc3n2N=C(c2ccccc2OC)CS3)c(OC)c1
-1%	COC(OC)[C@@H](C)[C@H](OC)[C@@H](C)[C@H](OC)c1ccccc1
0%	CO[C@H]1COC(=O)C/C=C\[C@H](C)[C@@H](OC)COC(=O)[C@@H](C)NC(=O)C/C=C\[C@@H]1C
2%	CCCCc1nc2c(c3c1C[C@H](C)OC3)CN(C(=O)NCCCC(=O)OCC)CC2

Brought forward from above: two compounds; new compounds follow.
Sfp PPTase inh	SMILES
0%	CO[C@H]1COC(=O)C/C=C\[C@H](C)[C@@H](OC)COC(=O)[C@@H](C)NC(=O)C/C=C\[C@@H]1C
2%	CCCCc1nc2c(c3c1C[C@H](C)OC3)CN(C(=O)NCCCC(=O)OCC)CC2
0%	COC(=O)C(C(=O)OC)[C@@H]1CCCC(=O)C1
?	COC(=O)C(CN)c1c[nH]c2ccc(OC)cc12 (stereo unspecified)
-1%	O=c1cc(-c2ccc(O)cc2)oc2cccc(O)c12
18%	CCCC/C=C/C(NC(=O)Oc1cccc(C(F)(F)F)c1)c1ccccc1 (stereo unspecified)
6%	CC#CCN1c2ccccc2[C@]23C[C@@H](C(=O)OC)N(S(=O)(=O)c4ccc(C)cc4)C2=NC(C(=O)OC)=C(C(=O)OC)[C@H]13
-1%	CC[C@H](C)[C@H](NC(=O)[C@H](Cc1ccc(O)cc1)NC(=O)[C@@H](NC(=O)[C@H](CCCN=C(N)N)NC(=O)[C@@H](N)CC(=O)O)C(C)C)C(=O)N[C@@H](Cc1cnc[nH]1)C(=O)N1CCC[C@H]1C(=O)N[C@@H](Cc1ccccc1)C(=O)O
20%	C[C@@H](C(=O)N[C@@H](CO)Cc1ccccc1)[C@@H]1C[C@@]1(C)[C@@H](NC(=O)OCc1ccccc1)c1ccccc1
45µM*	COc1cc(C/C=C\c2ccccc2)c(OC)cc1O
2%	CCCCC/C=C\C/C=C\C/C=C\CCCCCCC(=O)NCC(=O)O
7%	Cc1ccc([S+](=O)([O-])N(c2ccccc2)[S+](=O)([O-])C(F)(F)F)cc1
-73%	Cn1nnnc1SCC1=C(C(=O)O)N2C(=O)C(NC(=O)C(OC=O)c3ccccc3)C2SC1 (stereo unspecified)
?	Cn1cc(C=C2C(=O)Nc3cccnc32)c2ccccc21
-91%	O=c1cc(-c2ccccc2)oc2c(O)c(O)ccc12
0%	COc1ccc2c(c1)O[C@H](c1ccc3c(c1)OCO3)[C@@H](OC(=O)NCc1ccc3c(c1)OCO3)C2=O
-18%	CSCC[C@H](NC(=O)[C@H](CCC(N)=O)NC(=O)[C@H](CCCCN)NC(=O)[C@H](CCCNC(=N)N)NC(=O)[C@H](Cc1ccc(O)cc1)NC(=O)[C@H](CCCNC(=N)N)NC(=O)[C@H](CO)NC(=O)[C@H](Cc1ccc(O)cc1)NC(=O)[C@H](CO)NC(=O)[C@H](CC(=O)O)NC(=O)[C@@H](NC(=O)[C@@H](N)Cc1ccccc1)[C@@H](C)O)C(=O)N[C@@H](C)C(=O)N[C@H](C(=O)N[C@@H](CCCCN)C(=O)N[C@@H](CCCCN)C(=O)N[C@@H](Cc1ccc(O)cc1)C(=O)N[C@@H](CC(C)C)C(=O)N[C@@H](C)C(=O)N[C@@H](C)C(=O)N[C@H](C(=O)N[C@@H](CC(C)C)C(=O)NCC(=O)N[C@@H](CCCCN)C(=O)N[C@@H](CCCNC(=N)N)C(=O)N[C@@H](Cc1ccc(O)cc1)C(=O)N[C@@H](CCCCN)C(=O)N[C@@H](CCC(N)=O)C(=O)N[C@@H](CCCNC(=N)N)C(=O)N[C@H](C(=O)N[C@@H](CCCCN)C(=O)N[C@@H](CC(N)=O)C(=O)N[C@@H](CCCCN)C(N)=O)C(C)C)C(C)C)C(C)C
14%	CCCCNc1nc(C)nc2c1nc(-c1ccccc1)n2CCN(C)C
9%	COCCNc1nc(C)nc2c1nc(-c1ccccc1)n2C1CCN(Cc2ccccc2)C1 (stereo unspecified)
3%	COc1ccccc1C1=Nn2c(nnc2-c2ccccc2OC)SC1
14%	CCCCCCCCCCCCCCCCCC[N+](C)(C)CCC[Si](OC)(OC)OC
-5%	CCNCCCNCCCNCCCNCC
19%	CCC/C=C(\CCC)C(NS(=O)(=O)c1ccc(Cl)cc1)c1ccccc1 (stereo unspecified)
18%	COC(=O)[C@@H](O)CC[C@@H](C)Cc1c(OC)c(OC)c(C)c(OC)c1OC
?	CC(=O)Nc1ccn(C2CC3OCC(NC(=O)C4CCCN4C(=O)OC(C)(C)C)C3O2)c(=O)n1 (stereo unspecified)
10%	COc1cc2c(c(OC)c1OC)-c1ccc(OC)c(=O)cc1[C@@H](NC=O)CC2
9%&8%	OCc1cccnc1
7%	Nc1ccccc1C(=O)/C=C\c1ccc2c(c1)OCO2
-1%	CCN1C(C)=C(C(=O)OC)C(c2ccccc2)N2C(=O)[C@@]3(C(=O)OC)O[C@@]12C1C(=O)CCCC13 (stereo partly specified)
-5%	C#CCC(C(=O)OC)(C(=O)OC)C(C[N+](=O)[O-])c1ccccc1 (stereo unspecified)
0%	CCCCCCCCCCCC(=O)[O][Sn]([CH2]CCC)([CH2]CCC)[O]C(=O)CCCCCCCCCCC
12%	C=Cc1ccc(S(=O)(=O)O)cc1

A draw from above in order of number of heavy atoms, descending.
Sfp PPTase inh	SMILES
?	CC(=O)Nc1ccn(C2CC3OCC(NC(=O)C4CCCN4C(=O)OC(C)(C)C)C3O2)c(=O)n1 (stereo unspecified)
10%	COc1cc2c(c(OC)c1OC)-c1ccc(OC)c(=O)cc1[C@@H](NC=O)CC2
18%	COC(=O)[C@@H](O)CC[C@@H](C)Cc1c(OC)c(OC)c(C)c(OC)c1OC
-5%	C#CCC(C(=O)OC)(C(=O)OC)C(C[N+](=O)[O-])c1ccccc1 (stereo unspecified)
7%	Nc1ccccc1C(=O)/C=C\c1ccc2c(c1)OCO2
9%&8%	OCc1cccnc1

Next records:
Sfp PPTase inh	SMILES
-18%	COCC(=O)N1CCc2nc(-c3ccc(OC)cc3C)c3c(c2C1)CO[C@@H](c1ccccc1)C3
1%	COc1ccc(O[C@H]2C=C[C@@H](c3ccccc3)O[C@H]2COC(=O)CC/C(C)=N\O[C@@H](C)CN2CCCc3nc(C)c(C)cc32)cc1
7%	COC(=O)[C@@]1(Cc2ccc(OC)cc2)[C@H]2c3cc(C(=O)N4CCCC4)n(Cc4nc5ccccc5[nH]4)c3C[C@H]2CN1C(=O)c1ccccc1
25%	CC[C@@H]1C(c2cccc(C)c2)=NN(c2ccc(Br)cc2)[C@H]1C(=O)N1CCOC1=O
-5%	COC(=O)CCCC1=CC2=C(c3ccccc3)C(=O)C(C)(OC(=O)C3CCCC3)C(=O)C2=CO1 (stereo unspecified)
5%	CCCC[C@H](NC(C)=O)C(=O)N[C@H]1CC(=O)NCCCC[C@@H](C(N)=O)NC(=O)[C@H](Cc2c[nH]c3ccccc23)NC(=O)[C@H](CCCN=C(N)N)NC(=O)[C@@H](Cc2ccccc2)NC(=O)[C@H](Cc2cnc[nH]2)NC1=O
-2%	COc1ccc(C2=CC3=C(Br)C(=O)C(C)(OC(=O)c4cnc5ccccc5n4)C(=O)C3=CO2)cc1 (stereo unspecified)
3%	C[C@@H]1O[C@@H](OC[C@H]2O[C@@H](Oc3cc(O)c4c(c3)O[C@H](c3ccc(O)c(O)c3)CC4=O)[C@H](O)[C@@H](O)[C@@H]2O)[C@H](O)[C@H](O)[C@H]1O
-5%	O=c1cc(-c2ccc(O)c(O)c2)oc2cccc(O)c12
25%	CCCCCCCCCCC(C)=O
-16%	O=C(O)c1ccc(N[C@@H]2OC[C@@H](O)[C@@H](O)[C@@H]2O)cc1
13%	O=C1CC[C@@]23/C=C/C(=O)NCCCCNCCCNC(=O)/C=C/c4ccc(c2c4)OC3C1 (stereo partly specified)
7%	NS(=O)(=O)Nc1ccccc1Br
12%	Cc1nc(N2CCOCC2)c2nc(-c3ccccc3)n(CC(C)(C)CN(C)C)c2n1
4%	C#CCCCO/N=C1/C[C@@H](O)[C@@H](O)[C@@H]2[C@@H]3C(=O)N(CC)C(=O)[C@H]3CC[C@@H]12
-2%	CCCCCCCCCC(=O)NO
7%	CCCCNC(=O)NS(=O)(=O)c1ccc(CO)cc1
16%	COC(=O)c1ccc(C(NC(=O)OCc2ccccc2)/C(=C/[C@@H](C)C(=O)NCc2ccc(OC)c(OC)c2)c2cccnc2)cc1 (stereo partly specified)
?	CC(=O)OC[C@@H]1O[C@@H](O/N=C2/C[C@@H](O)[C@@H](O)[C@@H]3[C@@H]4C(=O)N(Cc5ccccc5)C(=O)[C@H]4CC[C@H]23)[C@H](OC(C)=O)[C@H](OC(C)=O)[C@@H]1OC(C)=O
6%	CSCC[C@H](NC(=O)[C@@H]1CCCN1C(=O)CNC(=O)[C@H](CCCCN)NC(=O)[C@H](Cc1cnc[nH]1)NC(=O)[C@H](CO)NC(=O)[C@H](CC(C)C)NC(=O)[C@H](CCCN=C(N)N)NC(=O)[C@@H]1CCCN1C(=O)[C@H](CCCN=C(N)N)NC(=O)[C@@H]1CCC(=O)N1)C(=O)N1CCC[C@H]1C(=O)N[C@@H](Cc1ccccc1)C(=O)O
11%	O=C1C2C(c3ccccc3)CC=CC2C(c2cccc([N+](=O)[O-])c2)N1Cc1ccccc1 (stereo unspecified)
-38%	COc1ccc2c(c1)OC/C(=C\c1ccc(OC)c(O)c1)C2=O
9%	COc1ccc(COC(=O)N/N=C2/C[C@@H](O)[C@@H](O)[C@@H]3[C@@H]4C(=O)N(c5cccc(Oc6ccccc6)c5)C(=O)[C@H]4CC[C@@H]23)cc1
?	COc1cc(N(C)C)cc(CN(C)CCc2ccc([N+](=O)[O-])cc2)c1O
22%	C[C@H](NC(=O)[C@@H](Cc1c[nH]c2ccccc12)NC(=O)[C@@H](N)Cc1cnc[nH]1)C(=O)N[C@@H](Cc1c[nH]c2ccccc12)C(=O)N[C@H](Cc1ccccc1)C(=O)N[C@@H](CCCCN)C(N)=O
-12%	C[C@@]12CCC(=O)C=C1C=CC1C2CC[C@]2(C)C1CC[C@@]21CCC(=O)O1 (stereo partly specified)
?	COc1ccc2[nH]cc(CC(N)C(=O)O)c2c1 (stereo unspecified)
-8%	COc1ccc(C(=O)N(O)c2ccccc2)cc1
16%&-18%	COCOc1cc(OC)ccc1C(=O)/C=C/c1ccc2c(c1)OCO2
28%	Cc1nc(N2CCOCC2)c2nc(-c3ccccc3)n(CCCN3CCOCC3)c2n1
8%	CC(=O)c1ccc(OC2C=CC(c3ccc(Cl)cc3)OC2CO)cc1 (stereo unspecified)
10%	O=[N+]([O-])c1cccc(S(=O)(=O)NCCNS(=O)(=O)c2cccc([N+](=O)[O-])c2)c1
1%&-8%	CN1CCN(C2=Nc3ccccc3Sc3ccc(Cl)cc32)CC1
-2%	C=CCOc1ccc2c(=O)n(C)c3ccccc3c2c1
-12%&-26%&13%	CN(C)CCCSC(=N)N
-2%	COC(=O)C1=C(C)N(Cc2ccccc2)[C@]23O[C@](C(=O)OC)(C(=O)N2C1c1ccccc1)C1CCOC(=O)C13 (stereo partly specified)
21%	CC(=O)OCC(NC(=O)C(CCCCNC(=O)OCc1ccccc1)NC(=O)OC(C)(C)C)C1OC(n2cc(F)c(=O)[nH]c2=O)C(OC(C)=O)C1OC(C)=O (stereo unspecified)
14%	COC(=O)NC(c1ccc2c(c1)OCO2)C(C(=O)OC)C(=O)OC (stereo unspecified)
10%&10%	CCCCCCCC/C=C\CCCCCCCC(=O)OCC(CO)OC(=O)CCCCCCC/C=C\CCCCCCCC (stereo unspecified)
40µM*	Oc1cccc(O)c1O
-12%	CO[C@H]1C[C@@H]2C[C@H](O)C[C@@H](CC(=O)O[C@@H](/C=C\CC(C)C)C[C@@H]3CC[C@H](C)[C@@H](C1)O3)O2
23%	CC(C)(CO)[C@@H](O)C(=O)NCCC(=O)NCCSSCCNC(=O)CCNC(=O)[C@H](O)C(C)(C)CO
12%	OC[C@@H](O)C(O)[C@@H](O)CO (stereo partly specified)
5%	CC(=O)NC1C(O)O[C@H](C(=O)O)[C@@H](O)[C@@H]1O (stereo partly specified)
-2%	COC(=O)[C@@]1(Cc2ccc(OC)cc2)[C@H]2c3cc(C(=O)N(C)C)n(Cc4ccccc4)c3C[C@H]2CN1C(=O)c1ccccc1
4%	CC(C)CC1OCCC=CC1C (stereo unspecified)
-6%	O=C1C2Cc3c([nH]c4ccccc34)C(c3ccccc3)N2C(=O)C2Cc3c([nH]c4ccccc34)C(c3ccccc3)N12 (stereo unspecified)
21%	C[C@H]1Cc2c(-c3ccccc3)nc3c(c2CO1)CN(C(=O)C1CCCCC1)CC3
-3%	COCOc1ccccc1C(=O)/C=C/c1ccccc1
?	CC1(OC(=O)c2ccc(Cl)nc2)C(=O)C=C2C=C(c3ccc(C#N)cc3)OC=C2C1=O (stereo unspecified)
0%	COc1ccc(OC2C(O)COC2/C=C/C#Cc2ccccc2)cc1 (stereo unspecified)
18µM*	C[N+](C)(C)CCC(=O)c1cccc2ccccc12
